Beta2AR agonist – human beta-2 adrenergic receptor agonism by FAP; Am2.2-beta2AR cells, FAP receptor internalization, flow cytometry; reference of the scale not given here; AID 504454; actives 0.43% (n = 340,000); response, % (no concentration beside the values); P07550;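 active means response above a set limit, near 3 SD of response in nonfluorescent compounds, cut at about 42% in these data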;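 further: stock transfer was 100 nL into about 11 µL; a reference agonist was the positive control; negative values mostly stem from fluorescent compounds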
UCH37 DUB inh – blocks the human deubiquitinase UCH37; Q9Y5K5; purified proteasome/UCH37, Ub-AMC cleavage fluorescence; inhibition, % (test concentration not listed); actives 0.33% (n = 330,000); AID 588478;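 active means mean of two replicates above 20%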;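 further: 0% = compound-free wells with enzyme and 100% = wells lacking proteasome; stock transfer was 100 nL into about 20 µL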
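Material: Human UCH37 enzyme supplied as purified proteasome complex | Schedule: 30 min compound-proteasome preincubation then 25 min substrate reaction, room temperature | Detection: AMC fluorescence from Ub-AMC cleavage, excitation 355 nm, emission 460 nm | Benchmarks: Wells without proteasome as full block, compound-free enzyme plus substrate as uninhibited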
HNF4A DNA FP – change in binding of human HNF4 alpha to DNA; P41235; HNF4a-FITC DNA binding, fluorescence polarization, 1 h; activity change, % at 10 µM; actives 0.3% (n = 360,000); AID 1224865; in the data active means activity change above about 30%, passing the limit was not always enough;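 further: controls were the assay level and a saturating level of protein; the project sought stronger binding though the title names inhibitors; some compounds called inactive have numbers as strong as hits; positive values seem to mean higher polarization but the record does not say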
Bfl-1 A1 inh – inhibitors of the anti-apoptotic protein A1, read as caspase activation; MEF A1-2A-BIM cells, Caspase-Glo 3/7 luminescence, 3 h; percent of clofoctol response, vehicle zero; AID 2462; caspase activation, % (concentration not given with the values); actives 0.066% (n = 330,000);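 active means over half of replicate activation scores above 10%, or exactly half above 10 with the replicate mean above 10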;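 further: wells of about 30 µL received 50 nL stock; many hits fall short of the cut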
Ecoli growth – E. coli growth inhibition | Escherichia coli growth, OD600, 23 h; hits give low values | OD600 absorbance (concentration not given with the values) | actives 0.21% (n = 330,000) | AID 1053175;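 active means OD600 absorbance below the run mean of sample wells minus 3.6 SD, in any replicate, cut at about 0.56 in these data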;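 further: stock transfer was 300 nL into about 60 µL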
LANA-H2A inh – blocks KSHV LANA binding to histone H2A/H2B. actives 0.6% (n = 320,000). Q9QR71. cell-free LANA-H2A/H2B peptide, fluorescence polarization. inhibition, % (concentration not given with the values). AID 2629; in the data active means inhibition mostly above about 10%, no sharp cut-off; inactive means mostly below about 6.7%;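 further: stock transfer was 7.5 nL into about 10 µL; 0% = median of vehicle wells and 100% = median of positive control wells; one replicate is shown; the record names a cut of 25% in any replicate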
Target sequence (Q9QR71 whole entry, looked up): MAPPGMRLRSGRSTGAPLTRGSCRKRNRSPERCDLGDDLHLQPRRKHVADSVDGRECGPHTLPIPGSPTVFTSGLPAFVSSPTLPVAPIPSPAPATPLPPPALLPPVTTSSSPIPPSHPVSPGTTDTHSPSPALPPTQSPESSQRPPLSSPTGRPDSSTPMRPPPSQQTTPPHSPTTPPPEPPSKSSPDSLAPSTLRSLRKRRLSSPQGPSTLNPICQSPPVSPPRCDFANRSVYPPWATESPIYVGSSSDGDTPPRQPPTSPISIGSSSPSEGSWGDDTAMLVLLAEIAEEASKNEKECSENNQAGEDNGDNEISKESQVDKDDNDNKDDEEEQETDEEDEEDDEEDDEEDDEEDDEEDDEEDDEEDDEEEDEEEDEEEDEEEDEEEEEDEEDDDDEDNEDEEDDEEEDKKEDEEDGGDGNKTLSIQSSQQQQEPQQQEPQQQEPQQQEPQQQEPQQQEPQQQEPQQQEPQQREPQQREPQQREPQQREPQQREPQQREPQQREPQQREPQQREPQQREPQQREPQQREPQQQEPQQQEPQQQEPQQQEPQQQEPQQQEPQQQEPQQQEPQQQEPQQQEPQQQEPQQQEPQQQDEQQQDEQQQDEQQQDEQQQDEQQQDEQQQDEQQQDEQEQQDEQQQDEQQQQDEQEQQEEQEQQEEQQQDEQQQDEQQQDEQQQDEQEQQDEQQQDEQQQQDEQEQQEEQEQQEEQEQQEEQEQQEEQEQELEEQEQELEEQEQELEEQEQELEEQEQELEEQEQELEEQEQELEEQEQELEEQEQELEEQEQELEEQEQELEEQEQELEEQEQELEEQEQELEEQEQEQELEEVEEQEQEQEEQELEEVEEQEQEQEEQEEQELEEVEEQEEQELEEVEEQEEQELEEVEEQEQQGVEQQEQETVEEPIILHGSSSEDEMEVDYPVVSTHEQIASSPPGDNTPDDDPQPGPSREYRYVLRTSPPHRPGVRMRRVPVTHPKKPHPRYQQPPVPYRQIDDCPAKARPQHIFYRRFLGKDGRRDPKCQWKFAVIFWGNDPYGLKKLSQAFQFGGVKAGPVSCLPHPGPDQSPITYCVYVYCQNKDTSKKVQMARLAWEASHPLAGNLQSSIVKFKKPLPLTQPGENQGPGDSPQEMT
Vif TR-FRET – HIV-1 Vif–A3G interaction blockers – biochemical, TR-FRET, GST-Vif 1-94, biotin-A3G peptide, dose response retest, primary screen (AID 1117319). TR-FRET GST-Vif / biotin-A3G peptide binding; higher % means a stronger effect; test concentration not given here; strong numbers were not always called active. inhibition, %, or IC50 in µM where a hit was titrated. actives 0.57% (n = 260,000);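 active means above the screen mean plus three standard deviations and confirmed in dose response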;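 further: Vif residues 1-94 fused to GST binding biotinylated APOBEC3G peptide 110-148; 0% = full assay without inhibitor and 100% = GST in place of GST-Vif; retest series ran down from 100 µM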
An asterisk follows results filed as active. Outcome played no part in choosing rows; 2.1% or so of the library scored in one or more.

CC1CC(NC(=O)c2cnc3n(c2=O)CCS3)CC(C)(C)C1 (stereo not given) was read as Beta2AR agonist -15, UCH37 DUB inh 3.3, HNF4A DNA FP 2.3, Bfl-1 A1 inh -0.4, Ecoli growth 0.76 and LANA-H2A inh 3.1.
`CC(=O)Nc1ccc(S(=O)(=O)N(C)CC(=O)OC2CCCCC2=O)cc1` (stereo not given) gave Beta2AR agonist 3, UCH37 DUB inh 0.7, HNF4A DNA FP -5.9, Bfl-1 A1 inh -0.4, Ecoli growth 0.66, LANA-H2A inh 59* and Vif TR-FRET 29%.
Screening CN(CCCNC(=O)c1ccc(N2CCCC2=O)cc1)c1ccccc1 returned Beta2AR agonist -6, UCH37 DUB inh -2.8, HNF4A DNA FP 1.2, Bfl-1 A1 inh 0.5, Ecoli growth 0.72, LANA-H2A inh 2.3 and Vif TR-FRET 4%.
For CC(=O)NC1(NC(C)=O)CCN(C)C(c2ccccc2)C1C (stereo not given) the results were Beta2AR agonist 0, UCH37 DUB inh -4.6, HNF4A DNA FP -2.6, Bfl-1 A1 inh -2.3, Ecoli growth 0.78, LANA-H2A inh -2.0 and Vif TR-FRET 2%.
Screening CCOCCCNC(=O)N[C@@H](Cc1ccccc1)C(=O)OC returned Beta2AR agonist 5, UCH37 DUB inh 3.5, HNF4A DNA FP 2.2, Bfl-1 A1 inh -0.8, Ecoli growth 0.64, LANA-H2A inh -0.8 and Vif TR-FRET -6%.
`CCc1nnc(NC(=O)c2c(O)c3c([nH]c2=O)CCCC3)s1` gave Beta2AR agonist -18, UCH37 DUB inh -1.3, HNF4A DNA FP 0.7, Bfl-1 A1 inh -0.4, Ecoli growth 0.67, LANA-H2A inh -10 and Vif TR-FRET 14%.
`O=C(NCc1ccco1)c1ccc(F)c(S(=O)(=O)N2CCCCC2)c1` gave Beta2AR agonist 4, UCH37 DUB inh 1.8, HNF4A DNA FP -0.2, Bfl-1 A1 inh 0.1, Ecoli growth 0.68 and LANA-H2A inh 2.6.
O=C1CC(Sc2ncn[nH]2)C(=O)N1c1ccccc1 (stereo not given) was read as Beta2AR agonist 1, UCH37 DUB inh 1.8, HNF4A DNA FP -4.2, Bfl-1 A1 inh 0.0, Ecoli growth 0.71, LANA-H2A inh 0.2 and Vif TR-FRET -3%.
`CCOC(=O)c1ccc(Oc2c(C)oc3cc(OS(C)(=O)=O)ccc3c2=O)cc1` gave Beta2AR agonist -2, UCH37 DUB inh 0.6, HNF4A DNA FP -0.4, Bfl-1 A1 inh 1.0, Ecoli growth 0.7 and LANA-H2A inh 1.0.
COc1cc(/C=N/NC(=O)c2cccnc2)ccc1OCC(=O)Nc1c(C)cc(C)cc1C was read as Beta2AR agonist 4, HNF4A DNA FP -2.4, Bfl-1 A1 inh 1.0 and LANA-H2A inh -9.6.
For COc1ccc(C2=NN3C(C2)c2ccccc2OC32C(=O)N(C)c3ccccc32)cc1 (stereo not given) the results were Beta2AR agonist 17, UCH37 DUB inh -20, HNF4A DNA FP 5.2, Bfl-1 A1 inh -3.3, Ecoli growth 0.76, LANA-H2A inh 1.8 and Vif TR-FRET 19%.
Screening Fc1ccccc1-c1n[nH]c(=S)n1CC1CCCO1 (stereo not given) returned Beta2AR agonist 6, UCH37 DUB inh 1.8, HNF4A DNA FP -4.6, Bfl-1 A1 inh 0.7, Ecoli growth 0.7, LANA-H2A inh -1.0 and Vif TR-FRET -6%.
Screening C=CC[C@H](CC(=O)NCCO)C(=O)N[C@@H](COC(=O)[C@H](CC=C)CC(=O)OC(C)(C)C)Cc1c[nH]c2ccccc12 returned Beta2AR agonist -2, UCH37 DUB inh 1.5, HNF4A DNA FP -3.0, Bfl-1 A1 inh 1.2 and LANA-H2A inh 6.4.
For Cc1cccc(NC(=O)CN2C(=O)N/C(=C/c3cc(C)n(C(C)C)c3C)C2=O)c1 the results were Beta2AR agonist -4, UCH37 DUB inh -2.1, HNF4A DNA FP -0.9, Bfl-1 A1 inh 0.0, Ecoli growth 0.7, LANA-H2A inh 4.1 and Vif TR-FRET -1%.
O=C(Nc1ccccc1C(=O)N1CCOCC1)c1noc2c1CCCC2 was read as Beta2AR agonist -5, UCH37 DUB inh -1.6, HNF4A DNA FP 1.8, Bfl-1 A1 inh -0.6, Ecoli growth 0.74, LANA-H2A inh 0.1 and Vif TR-FRET -4%.
O=C(COc1ccc(C2SCCS2)cc1)NNC(=O)C(Cl)Cl was read as Beta2AR agonist 6, UCH37 DUB inh 1.7, HNF4A DNA FP -3.0, Bfl-1 A1 inh 0.2, Ecoli growth 0.71, LANA-H2A inh 0.9 and Vif TR-FRET 8%.
CCOC(CNC(=O)c1ccc2c(c1)nc(C)n2-c1cccc(F)c1)OCC was read as Beta2AR agonist 3, UCH37 DUB inh 5.7, HNF4A DNA FP -2.3, Bfl-1 A1 inh 0.6, Ecoli growth 0.73, LANA-H2A inh 2.6 and Vif TR-FRET 4%.
Screening N/C(=N\OC(=O)CCC1CCCC1)c1ccc([N+](=O)[O-])cc1 returned Beta2AR agonist -1, HNF4A DNA FP 0.2, Bfl-1 A1 inh 0.5, LANA-H2A inh -7.8 and Vif TR-FRET -6%.
For CN(C)CCCN1CC(C(=O)O)CC1=O (stereo not given) the results were Beta2AR agonist -7, UCH37 DUB inh 1.7, HNF4A DNA FP 0.1, Bfl-1 A1 inh 1.0, Ecoli growth 0.71, LANA-H2A inh -0.1 and Vif TR-FRET -1%.
`CCOC(=O)c1c(S(=O)(=O)NCCc2ccc(OC)c(OC)c2)c(C)n(C)c1C` gave Beta2AR agonist -5, UCH37 DUB inh -1.1, HNF4A DNA FP -1.6, Bfl-1 A1 inh -0.9, Ecoli growth 0.64, LANA-H2A inh -2.6 and Vif TR-FRET 1%.
For COc1ccc(N(CC(O)CN2CCCCC2)S(=O)(=O)c2ccc(C)cc2)cc1 (stereo not given) the results were Beta2AR agonist 3, UCH37 DUB inh 4.3, HNF4A DNA FP -3.9, Bfl-1 A1 inh 0.5, Ecoli growth 0.67, LANA-H2A inh 1.8 and Vif TR-FRET 1%.
`CCCN1CCN(C(=O)c2cc(COc3ccc4ncccc4c3)on2)CC1` gave Beta2AR agonist 2, UCH37 DUB inh -0.7, HNF4A DNA FP 1.6, Bfl-1 A1 inh 1.1, Ecoli growth 0.67, LANA-H2A inh 1.6 and Vif TR-FRET -4%.
For CCOc1ccc(NC(=O)N(c2ccccc2)c2ccccc2)cc1 the results were Beta2AR agonist 5, UCH37 DUB inh 3.3, HNF4A DNA FP -4.7, Bfl-1 A1 inh 1.3, Ecoli growth 0.62 and LANA-H2A inh 5.0.
`O=C(N/N=C\c1cccnc1)c1ccc(Cl)cc1Cl` gave Beta2AR agonist -12, HNF4A DNA FP 2.6, Bfl-1 A1 inh 0.4, LANA-H2A inh -5.3 and Vif TR-FRET -4%.
O=C(O)CC(SCC(=O)NC1CCCc2ccccc21)C(=O)O (stereo not given) was read as Beta2AR agonist 5, UCH37 DUB inh 1.3, HNF4A DNA FP 5.6, Bfl-1 A1 inh 0.3, Ecoli growth 0.71, LANA-H2A inh 1.7 and Vif TR-FRET -1%.
COc1ccc(C2C(C#N)=C(C)NC(C)=C2C(=O)OC(C)C)c(OC)c1 (stereo not given) was read as Beta2AR agonist -3, UCH37 DUB inh -73, HNF4A DNA FP 2.7, Bfl-1 A1 inh 1.2, Ecoli growth 0.7, LANA-H2A inh 1.8 and Vif TR-FRET -3%.
Screening COc1ccc(OC)c(C2C(C(=O)c3ccc(C)o3)=C(O)C(=O)N2CCN2CCOCC2)c1 (stereo not given) returned Beta2AR agonist 2, UCH37 DUB inh 12, HNF4A DNA FP 0.3, Bfl-1 A1 inh 0.4, Ecoli growth 0.7, LANA-H2A inh -1.1 and Vif TR-FRET -2%.
CCc1nnc(NC(=O)C2CCN(C(=O)NC3CCCCC3)CC2)s1 was read as Beta2AR agonist -3, HNF4A DNA FP 1.6, Bfl-1 A1 inh -0.3, LANA-H2A inh -3.3 and Vif TR-FRET -8%.
Cc1ccc2nc(SCC(=O)Nc3nnc(SCC(N)=O)s3)[nH]c2c1 was read as Beta2AR agonist 0, UCH37 DUB inh 3.4, HNF4A DNA FP -4.3, Bfl-1 A1 inh 0.2, Ecoli growth 0.7, LANA-H2A inh 1.6 and Vif TR-FRET 3%.
N#CCC(=O)c1sccc1-n1cccc1 was read as Beta2AR agonist -3, UCH37 DUB inh 1.4, HNF4A DNA FP -1.4, Bfl-1 A1 inh -0.6, Ecoli growth 0.7, LANA-H2A inh 3.5 and Vif TR-FRET 1%.
CCCn1nnnc1NCc1ccccc1OCC was read as Beta2AR agonist 7, HNF4A DNA FP 1.7, Bfl-1 A1 inh -0.2, LANA-H2A inh -0.1 and Vif TR-FRET -9%.
`CCOC(=O)N1CCC(N2C(=O)c3ccc(C(=O)Nc4ccc(OC)cc4)cc3C2=O)CC1` gave Beta2AR agonist 6, UCH37 DUB inh 3.8, HNF4A DNA FP 0.7, Bfl-1 A1 inh -1.8, Ecoli growth 0.65, LANA-H2A inh 5.6 and Vif TR-FRET 0%.
`CCCn1nc(NS(=O)(=O)c2ccccc2)c2cc3cc(C)ccc3nc21` gave Beta2AR agonist 6, UCH37 DUB inh -29, HNF4A DNA FP -1.7, Bfl-1 A1 inh 0.6, Ecoli growth 0.72, LANA-H2A inh 1.8 and Vif TR-FRET 29%.
`CCOC(=O)c1c(C)[nH]c(C(=O)CSc2nc3ccccc3o2)c1C` gave Beta2AR agonist 12, UCH37 DUB inh 1.4, HNF4A DNA FP 4.0, Bfl-1 A1 inh 0.0, Ecoli growth 0.68, LANA-H2A inh 2.8 and Vif TR-FRET -5%.
Screening O=C(COC(=O)CCc1c[nH]c2ccccc12)NCc1ccc2c(c1)OCO2 returned Beta2AR agonist 2, UCH37 DUB inh -0.8, HNF4A DNA FP 0.3, Bfl-1 A1 inh -0.9, Ecoli growth 0.63, LANA-H2A inh -0.4 and Vif TR-FRET 11%.
Screening Cc1cnc(C(=O)OCC(=O)NCc2ccccc2)cn1 returned Beta2AR agonist 2, UCH37 DUB inh 2.2, HNF4A DNA FP 3.5, Bfl-1 A1 inh 0.6, Ecoli growth 0.71, LANA-H2A inh 1.2 and Vif TR-FRET 3%.
For CCn1c(SCC(=O)N2CCOCC2)nnc1C(C)NC(=O)c1ccccc1 (stereo not given) the results were Beta2AR agonist 1, UCH37 DUB inh 7.2, HNF4A DNA FP 5.1, Bfl-1 A1 inh -2.9, Ecoli growth 0.69 and LANA-H2A inh -4.3.
O=C(CCc1nc2ccccc2[nH]1)Nc1ccccc1F was read as Beta2AR agonist -4, UCH37 DUB inh 7.1, HNF4A DNA FP 1.6, Bfl-1 A1 inh 0.7, Ecoli growth 0.74, LANA-H2A inh 4.6 and Vif TR-FRET -3%.
`COc1ccc(CNC(=O)C(=O)NCc2cccnc2)cc1` gave Beta2AR agonist 0, UCH37 DUB inh 2.3, HNF4A DNA FP 0.7, Bfl-1 A1 inh -0.2, Ecoli growth 0.67, LANA-H2A inh -0.3 and Vif TR-FRET 2%.
Cc1ccc(NC(=O)c2ccccc2NC(=O)c2cccnc2)cc1 was read as Beta2AR agonist -7, UCH37 DUB inh -1.3, HNF4A DNA FP 1.5, Bfl-1 A1 inh 1.1, Ecoli growth 0.67, LANA-H2A inh 3.2 and Vif TR-FRET 5%.
Screening N#C/C(=C/c1cn[nH]c1-c1ccc(Br)cc1)C(=O)O returned Beta2AR agonist -5, UCH37 DUB inh 5.4, HNF4A DNA FP -4.5, Bfl-1 A1 inh -0.3, Ecoli growth 0.71, LANA-H2A inh 2.7 and Vif TR-FRET -3%.
